# KCNQ2 block = KCNQ2 potassium channel inhibitors, primary screen, cell-based, CHO-K1, FluxOR thallium flux, B-score (AID 2156) | B-score at 10 µM | actives 1.1% (n = 310,000) | O88943 | 20 min; active compounds read low; only compounds with negative scores are shown here; some inactives read as strong as hits;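 active means fluorescence ratio B-score at most minus 3 library SDs, with starting brightness B-score within 2 library SDs, cut at about -5.5 in these data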
# Target sequence (O88943 whole entry, looked up): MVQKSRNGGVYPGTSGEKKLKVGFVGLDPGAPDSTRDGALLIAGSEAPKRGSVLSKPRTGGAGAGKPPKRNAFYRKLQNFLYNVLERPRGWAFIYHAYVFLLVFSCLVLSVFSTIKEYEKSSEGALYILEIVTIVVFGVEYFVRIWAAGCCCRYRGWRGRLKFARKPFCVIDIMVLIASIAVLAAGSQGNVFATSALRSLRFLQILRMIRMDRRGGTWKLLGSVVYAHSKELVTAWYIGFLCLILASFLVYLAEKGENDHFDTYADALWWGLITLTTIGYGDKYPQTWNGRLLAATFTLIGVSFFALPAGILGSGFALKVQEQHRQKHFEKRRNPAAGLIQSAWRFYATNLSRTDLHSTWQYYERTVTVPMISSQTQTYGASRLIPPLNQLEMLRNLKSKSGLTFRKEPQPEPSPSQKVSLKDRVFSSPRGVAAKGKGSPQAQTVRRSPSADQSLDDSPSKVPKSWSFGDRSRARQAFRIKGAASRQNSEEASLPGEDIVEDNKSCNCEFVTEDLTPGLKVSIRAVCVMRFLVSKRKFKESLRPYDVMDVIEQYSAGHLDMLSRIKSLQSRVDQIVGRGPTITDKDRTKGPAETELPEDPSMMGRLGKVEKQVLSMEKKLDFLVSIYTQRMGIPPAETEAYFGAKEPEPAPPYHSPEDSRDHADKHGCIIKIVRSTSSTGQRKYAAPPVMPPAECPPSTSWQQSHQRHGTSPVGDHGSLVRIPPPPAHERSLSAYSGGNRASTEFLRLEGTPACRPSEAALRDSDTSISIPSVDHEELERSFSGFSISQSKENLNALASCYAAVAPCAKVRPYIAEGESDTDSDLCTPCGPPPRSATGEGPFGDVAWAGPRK
# KCNQ2 block baseline = second read-out of KCNQ2 block, no call of its own (marks repeat the call); B-score; measured here: initial fluorescence intensity artifact check;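 brightness before thallium and not channel activity; 0 = typical well and far values either way flag optical interference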
# * marks the source's active call; other numbers are inactive results; i = inactive.
KCNQ2 block baseline | KCNQ2 block | SMILES
1.6 | i | CCC(Oc1ccccc1)C(=O)Nc1ccc(S(=O)(=O)Nc2cc(C)on2)cc1 (stereo not given)
-1.1 | i | COC(=O)CCNc1ccc2c(c1)OCCO2
-0.04 | i | COc1ccccc1NC(=O)c1cc(N)cc(C(=O)Nc2ccccc2OC)c1
-0.5 | i | COc1ccc(C(C(=O)NC2CCCCC2)N(C(=O)Cc2c[nH]c3ccccc23)c2ccccc2C)cc1OC (stereo not given)
-1.1* | -6.7* | Cc1ccccc1NS(=O)(=O)c1ccc(C(=O)NCC(c2ccco2)N2CCCCC2)cc1 (stereo not given)
-1.1 | i | Cc1[nH]c2c(Br)cccc2c1[C@H]1[C@@H](CC#N)C1(C)C
-0.8 | i | O=C(/C=C/NNC(=O)c1ccc(Cl)cc1)c1ccccc1
-2.9 | i | CCOC(=O)c1[nH]c2ccc(OCC)cc2c1CCCN1C(=O)c2ccccc2C1=O
0.02 | i | C=CCn1c(C(C)NC(=O)c2cccs2)n[nH]c1=S (stereo not given)
0.96 | i | CNC(=S)Nc1ccc(Nc2ccccc2)cc1
0.51 | i | NC(=O)c1ccc(NS(=O)(=O)c2ccc3ccccc3c2)cc1
-0.71 | i | CC1(C)CC(=O)C(=Cc2cn(-c3ccccc3)nc2-c2ccc(Cl)cc2)C(=O)C1
-0.52 | i | CCN(CC)C(=O)CSc1nnc(COc2ccccc2)n1CC
2.1 | i | CN(C(=O)c1ccc2c(c1)CCO2)C(C)(C)C
-1.2 | i | Cn1c(-c2ccc([N+](=O)[O-])cc2)nc2ccccc21
-3.6 | i | Cc1nc2n[nH]c(N)c2c2c1CCCC2
0.66 | i | O=S1(=O)C=C(Sc2nc3ccccc3s2)c2ccccc21
1 | i | CCC(=O)c1ccc(OCC(O)CN2CCN(S(=O)(=O)c3ccc(NC(C)=O)cc3)CC2)cc1 (stereo not given)
-0.04 | i | O=CN1Cc2ccccc2-c2ccccc2C1
0.4 | i | CCN(Cc1ccccc1)S(=O)(=O)c1c(N)n(C)c(=O)n(C)c1=O
-0.03 | i | CCN(Cc1ccccc1)C(=O)c1nn(-c2ccc(OC)cc2)c(=O)c2c1c1ccccc1n2C
0.1 | i | O=C(COc1ccc(Cl)cc1)NCCS(=O)(=O)N1CCN(c2ccccc2F)CC1
0.7 | i | CCOc1cc(NC(=S)NCCCN2CCOCC2)c(OCC)cc1NC(=O)c1ccccc1
0.08 | i | CC1CC(c2ccccc2)n2nc(NC(=O)c3cccs3)nc2N1 (stereo not given)
-2 | i | O=C(CSc1nccc2ccccc12)N1CCN(c2ccccn2)CC1
-1 | i | CCOC(=O)c1nnn(-c2nonc2-n2cccc2)c1C
0.03 | i | COc1cccc(-n2c([S-])c(C(=O)Nc3ccc(S(=O)(=O)N4CCOCC4)cc3)[n+]3cc(C(N)=O)ccc23)c1
-2.3 | i | Cc1ccccc1-c1noc(CCC(=O)NCc2ccco2)n1
5 | i | CN(C)CCN(C)Cc1c2ccccc2c(CN(C)CCN(C)C)c2ccccc12
-0.19 | i | CCC(=O)n1nc(-c2cccnc2)nc1NCc1ccc(OC)cc1
0.23 | i | O=C(C1CCN(Cc2ccc(F)cc2)CC1)N(CCO)Cc1ccccc1
1.6 | i | Cc1ccc(-c2c(C#N)c(N)nc3c2CCCCCC3)o1
1.3 | i | O=C(CSc1cccc2cccnc12)Nc1ccccc1F
-0.85 | i | COc1ccc([C@@H]2C[C@@H](c3ccccc3)Oc3cc(OC)c(OC)c(OC)c32)cc1
0.07 | i | Cc1ccc(S(=O)(=O)N2CCN(C(=O)c3cc(=O)[nH]c4ccccc34)CC2)c(C)c1
2.2 | i | COc1ccc(CSc2nnc(SCc3ccc([N+](=O)[O-])cc3)s2)cc1

# 7 compounds drawn at random from the list so far, as already listed:
KCNQ2 block baseline | KCNQ2 block | SMILES
-0.19 | i | CCC(=O)n1nc(-c2cccnc2)nc1NCc1ccc(OC)cc1
1.3 | i | O=C(CSc1cccc2cccnc12)Nc1ccccc1F
-2.3 | i | Cc1ccccc1-c1noc(CCC(=O)NCc2ccco2)n1
0.23 | i | O=C(C1CCN(Cc2ccc(F)cc2)CC1)N(CCO)Cc1ccccc1
0.03 | i | COc1cccc(-n2c([S-])c(C(=O)Nc3ccc(S(=O)(=O)N4CCOCC4)cc3)[n+]3cc(C(N)=O)ccc23)c1
-0.85 | i | COc1ccc([C@@H]2C[C@@H](c3ccccc3)Oc3cc(OC)c(OC)c(OC)c32)cc1
2.2 | i | COc1ccc(CSc2nnc(SCc3ccc([N+](=O)[O-])cc3)s2)cc1

# More entries follow:
KCNQ2 block baseline | KCNQ2 block | SMILES
-0.84 | i | O=C(NC(=S)Nc1nc(-c2ccc(Br)cc2)cs1)c1cccnc1
-1.4 | i | COCCN1C(=O)C(=O)/C(=C(/O)c2ccc(S(=O)(=O)N3CCOCC3)cc2)C1c1cccc(O)c1 (stereo not given)
-1 | i | Cc1ccc(-n2c(=S)sc3c(=O)n(-c4ccccc4C)c(SCC(=O)O)nc32)cc1C
0.96 | i | COc1ccc(CN2C(=O)CSC2c2ccncc2)cc1 (stereo not given)
0.1 | i | CC(=O)c1ccc(NC(=S)Nc2cccc(S(=O)(=O)Nc3c(C)n(C)n(-c4ccccc4)c3=O)c2)cc1
1 | i | CC(/C=N/NC(=O)c1cc(-c2cccnc2)nc2c1c(C)nn2-c1ccccc1)=C\c1ccccc1
1.3 | i | S=C1SCN(Cc2cccnc2)CN1Cc1cccnc1
-0.24 | i | O=C(c1ccc2c(=O)n(Cc3ccc4c(c3)OCO4)c(=S)[nH]c2c1)N1CCCCC1
0.64* | -7* | O=C(N/C=C\c1ccccc1)NCc1ccc(Cl)cc1
-0.28 | i | O=C(CO/N=C/c1ccc(OC(F)F)cc1)NC1CCCCC1
-1.7 | i | CCOC(=O)c1cnc2c(-c3ccccc3)c(-c3ccccc3)nn2c1C
-1.7 | i | COc1ccc(CN2C(=O)C(CC(C)C)Nc3ncnc(N4CCCCC4)c32)cc1 (stereo not given)
1.2 | i | O=C(CCC(=O)N(CC(=O)NC1CCCCC1)Cc1ccco1)Nc1nccs1
0.18 | i | CCc1ccccc1NC(=O)CN(C1CCCCC1)S(C)(=O)=O
-0.12 | i | CC1=C(C(=O)Nc2ccc(CC(=O)NCc3ccc(OC(C)C)cc3)cc2)SCCO1
-0.74 | i | O=C(NCc1ccccc1Cl)C1CCCN(c2ncnc3c2nc2n3CCCCC2)C1 (stereo not given)
-0.31 | i | Cc1ccccc1C(=O)Nc1cccc(NC(=O)Cn2cnc3c(=O)n(C)c(=O)n(C)c32)c1
3.9 | i | Cc1cc(C)n(-c2cc(N3CCN(C(=O)c4ccccc4C)CC3)ccc2[N+](=O)[O-])n1
-0.19 | i | O=C(Nc1ccccc1C(=O)N1CCCCCC1)c1ccccc1
-0.18 | i | C/C(=N\Nc1nc2ccccc2s1)c1ccc2c(c1)OCO2
-1.6 | i | COc1ccc2c(c1OC)C(=O)N1C2SC[C@H]1C(=O)NCCC(C)C (stereo not given in full)
0.86 | i | CCN(CC)C(=O)C1CCCN(Cc2cccc(Oc3ccccc3)c2)C1 (stereo not given)
-1.3 | i | Cc1[nH]nc(SCC(=O)NCCc2ccccc2)c1[N+](=O)[O-]
-0.32 | i | O=C(NCc1ccco1)C(c1ccccc1)N(C(=O)Cc1cccs1)c1ccccc1F (stereo not given)
-0.39 | i | O=C1CN(C(=O)Cn2ncc(Cl)c(Cl)c2=O)c2ccccc2N1
-0.14 | i | CN1CCc2c(n(CC(O)CNCc3ccccc3)c3ccccc23)C1=O (stereo not given)
1.4 | i | N#Cc1c(N)n(-c2ccccc2N)c2nc3ccccc3nc12
-1.4 | i | CN(C(=O)COC(=O)C1CCN(S(=O)(=O)c2c(Cl)cccc2Cl)CC1)c1ccccc1
0.86 | i | Cc1ccc(N(C(=O)c2ccn[nH]2)C(C(=O)NC2CCCC2)c2cccs2)cc1 (stereo not given)
0.89 | i | O=C(OCc1nnc(-c2ccc(Cl)cc2)o1)c1ccc(O)cc1
-0.93 | i | COc1ccc(Cl)cc1NC(=O)NCC1CCN(Cc2cc(C)ccc2C)CC1
1.1 | i | COc1cc(/C=C/C(=O)Nc2ccc(N3CCCCC3)c(S(=O)(=O)Nc3ccccc3Cl)c2)cc(OC)c1OC
-0.75 | i | CC(NC(=S)NCCCN1CCOCC1)C12CC3CC(CC(C3)C1)C2 (stereo not given)
1.1 | i | O=C(Nc1cccn(Cc2c(Cl)cccc2Cl)c1=O)c1ccc(Cl)cc1
0.36 | i | CCOC(=O)c1c(NC(=O)COC(=O)c2cc(OC)c(OC)cc2[N+](=O)[O-])sc(C)c1CC
-0.72 | i | COc1ccc(-n2cc(CNCCc3ncc(C)[nH]3)c(-c3ccccc3Cl)n2)cc1
-0.39 | i | COc1ccc(/C=N/N2CCN(c3ccccc3OC)CC2)cc1Br
0.05 | i | O=C(NC1CCCCC1)C(c1ccccn1)N(C(=O)c1csnn1)C1CCCCC1 (stereo not given)
-0.18 | i | O=[N+]([O-])c1ccccc1N/N=C\c1ccccc1Cl
1.1 | i | Cc1ccc(-n2c3c(c(=O)[nH]c2=O)C(C(F)(F)F)(C(F)(F)F)NC(=O)N3)cc1
-0.47 | i | O=C(COC(=O)c1cncc(Br)c1)Nc1ccc2c(c1)OCO2
0.71 | i | CC(C)(C)OC(=O)N1CCC[C@H]1C(=O)N/N=C/c1cccc2cccnc12
-2 | i | CC(=O)Nc1ccc(NC(=O)C(C)OC(=O)c2cccc(S(=O)(=O)N3CCCCCC3)c2)cc1 (stereo not given)
0.19 | i | COc1ccc(N2C(=O)N3[C@H](c4ccc(Cl)cc4)[C@@H]4C(=O)N(C5CCCCC5)C(=O)[C@@H]4[C@]3(Cc3ccc(Cl)cc3)C2=O)cc1
-1 | i | O=C(NCc1ccccc1Cl)NCc1ccccc1Cl
-0.36 | i | CCOc1cc(S(=O)(=O)NCc2cccnc2)c(C)cc1C
-1 | i | CCOC(=O)NC(=O)/C(C=Nc1ccc(Cl)c(Cl)c1Cl)=C(\C)O
1.7 | i | Cc1cccc(-n2ncc3c2CCCC3NC(=O)c2ccc[n+]([O-])c2)c1C (stereo not given)
0.06 | i | Cc1ccc(Cl)cc1NC(=O)CCC(=O)O
1.6 | i | CCC(CC)c1nc(C#N)c(NC(C)c2ccccc2)o1 (stereo not given)
0.09 | i | O=C(CN1CCC(C(O)(c2ccccc2)c2ccccc2)CC1)Nc1ccccc1
-0.72 | i | Cc1cccc(C)c1-n1c(C)nn(CCOc2ccccc2)c1=O
-0.27 | i | COc1ccc(C2CC(c3ccc(Br)cc3)=NN2C(=O)CN2CCCC2)cc1 (stereo not given)
7.6 | i | c1ccc(Cc2nnc3sc(-c4ccco4)nn23)cc1
-1.8 | i | Cc1ccc2c(NC(=O)c3ccc(Br)o3)cccc2n1
1.9 | i | O=C(NC1CCc2ccccc21)c1cc(COc2c(F)cccc2F)on1 (stereo not given)
-0.44 | i | CC12CCC(=O)N1C(C(=O)NCCc1ccccc1)CS2 (stereo not given)
0.09 | i | COc1ccc2oc(C(=O)OCC(=O)NC(=O)c3ccccc3)c(C)c2c1
-2 | i | O=C(NCc1ccco1)c1cc2cc(Br)ccc2o1
0.2 | i | CCCc1ccc2oc(C(=O)N3CCC(C(N)=O)(N4CCCCC4)CC3)c(C)c2c1

# More entries.
KCNQ2 block baseline | KCNQ2 block | SMILES
-0.99 | i | CCc1ccc(N=C2N=C(N)c3ccccc32)cc1
2 | i | COc1cc(/C=N/n2c(=S)[nH]nc(C)c2=O)cc([N+](=O)[O-])c1O
-0.04 | i | CC(C)(C)OC(=O)[C@H](Cc1ccccc1)NC(=O)c1nc[nH]c1C(=O)NCC(=O)OCc1ccccc1
0.77 | i | CC(C)CN(C(=O)c1ccc(Br)o1)C1CCS(=O)(=O)C1 (stereo not given)
-0.95 | i | Cc1cc(NC(=O)CSc2ncn[nH]2)no1
0.88 | i | N#CCSc1nc(-c2ccccc2)cs1
-0.68 | i | CS(=O)(=O)c1nc([N+](=O)[O-])nn1CCCc1ccccc1
-0.42 | i | C(=N\N(c1ccccc1)c1ccccc1)/c1ccc2c(c1)OCO2
-0.01 | i | Cc1ccc(N2C(=O)N(CC(=O)Nc3ccccc3C)C(=O)C2C)cc1 (stereo not given)
-0.38 | i | Cc1nn(CC(=O)NCc2ccccc2Cl)c(C)c1[N+](=O)[O-]
0.39 | i | Cc1cc(F)ccc1NCC(=O)Nc1ccc(Br)cc1C
-1.1 | i | CCOc1ccc(C2C(C(=O)NC)=C(C)Nc3nc4ccccc4n32)cc1OC (stereo not given)

# Reformatted as labelled records: entries from further up.
CC(C)(C)OC(=O)[C@H](Cc1ccccc1)NC(=O)c1nc[nH]c1C(=O)NCC(=O)OCc1ccccc1
  KCNQ2 block baseline: -0.04 | KCNQ2 block: i
CCc1ccc(N=C2N=C(N)c3ccccc32)cc1
  KCNQ2 block baseline: -0.99 | KCNQ2 block: i
N#CCSc1nc(-c2ccccc2)cs1
  KCNQ2 block baseline: 0.88 | KCNQ2 block: i

# The results go on.
KCNQ2 block baseline | KCNQ2 block | SMILES
-0.29 | i | Cc1ccc(NC(=O)CN(C)Cc2cc(=O)n3ccsc3n2)cc1
0.07 | i | Cc1cc(=O)[nH]c(SCC(=O)NCCC2=CCCCC2)n1
0.15 | i | O=C(CCS(=O)(=O)c1ccc(Cl)cc1)Nc1nc(-c2ccncc2)cs1
0.86 | i | COc1ccc(C(=O)Nn2c(SCC(=O)NCc3ccco3)nc3ccccc3c2=O)cc1
0.41 | i | COc1cccc(/C=N/NC(=S)Nc2cccnc2)c1
-0.67 | i | O=C(N/N=C\c1ccc([N+](=O)[O-])s1)c1cncc(Br)c1

# Source: PubChem

# The list is partial; rates above refer to the full screens.
